Rango-impB inh: Rango-importin beta binding inhibition; Rango CFP/YFP FRET sensor + importin beta, 45 min; Potency, µM (series often up to 92.2 µM), without a hit: at the highest dose inhibition of complex formation; hit rate 0.031% among 340,000; active = rising FRET ratio curve, often small or poorly fitted; inconclusive = mostly compound fluorescence or quenching in the first reads; inactive = flat curves in all reads;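 also: potency is read from the fitted curve at half-maximal effect; 0% = DMSO wells and 100% = buffer wells lacking importin beta; nearly all actives have a fitted effect of over 15% in size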
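FRET biosensor (snurportin 1 IBB flanked by EYFP and cerulean), 50 nM, with compound 5 min, then 0.125 microM importin beta in PBS, 1 mM DTT, 0.02% Tween-20, 0.1% BSA. CFP/YFP ratio read after 45 min at room temperature; pre-read flags interference.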
Rango dissoc inh: inhibitors of RanGTP-induced Rango-importin beta complex dissociation. O95149+P62826. Biochemical FRET Rango-importin beta, RanGTP-induced dissociation. Potency, µM (titrated, usually from 46.1 µM), for the others: at the top dose activity change, negative = inhibition. hit rate 0.071% among 340,000; active means falling FRET ratio curve, often poorly fitted, with flat reads before Ran was added; inconclusive means other falling curves, or compound fluorescence or quenching; inactive means flat or rising ratio curve;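 also: potency is read from the fitted curve at half-maximal effect; % of control where 0% means no effect; nearly all actives have a fitted effect of over 45% in size; -100% = wells without RanGTP and RCC1; the record marks most hits as doubtful in a second field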
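Rango (0.1 uM)–importin beta (0.25 uM) complex; RanGTP-RCC1 trigger; 45 min RT; CFP/YFP FRET read.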
miR-21 reporter: raises the signal of a miR-21 reporter; HeLa miR-21 FLuc reporter, luciferase, 48 h; 340,000 tested, under 10 active; Potency, µM (titrated, usually from 38.3 µM), without a hit: top-dose reporter change, positive = more light; AID 2288; active = well fitted rising curve with a large enough effect; inconclusive = small, poorly fitted or top-dose-only effect; inactive = no such curve, though single readings can be large or run the other way;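 also: % of control where 0% means no effect; miR-21 action dims this reporter so a rising signal means less miR-21 action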
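Compounds were titrated across several concentrations (up to approximately 40 uM) and incubated 48 hours with HeLa miR-21-FLuc reporter cells (miR-21 target sequence downstream of FLuc, endogenous miR-21). Readout was firefly luciferase luminescence after lytic detection reagent.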
GLA inh pH 4.5: alpha-galactosidase A (human) inhibition, pH 4.5; P06280; purified enzyme, 4-MU-alpha-Gal fluorescence, pH 4.5; activity change, negative = inhibition, % at 105 µM; 230,000 tested, under 10 active; inconclusive = small, poorly fitted or top-dose-only inhibition, or a rising curve; inactive = flat fitted curve, though single readings scatter; no compound was filed as active;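 also: 0% = full activity with enzyme and -100% = basal without enzyme; dose as in the result columns while the protocol names 77 µM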
Target sequence (P06280 whole entry, looked up): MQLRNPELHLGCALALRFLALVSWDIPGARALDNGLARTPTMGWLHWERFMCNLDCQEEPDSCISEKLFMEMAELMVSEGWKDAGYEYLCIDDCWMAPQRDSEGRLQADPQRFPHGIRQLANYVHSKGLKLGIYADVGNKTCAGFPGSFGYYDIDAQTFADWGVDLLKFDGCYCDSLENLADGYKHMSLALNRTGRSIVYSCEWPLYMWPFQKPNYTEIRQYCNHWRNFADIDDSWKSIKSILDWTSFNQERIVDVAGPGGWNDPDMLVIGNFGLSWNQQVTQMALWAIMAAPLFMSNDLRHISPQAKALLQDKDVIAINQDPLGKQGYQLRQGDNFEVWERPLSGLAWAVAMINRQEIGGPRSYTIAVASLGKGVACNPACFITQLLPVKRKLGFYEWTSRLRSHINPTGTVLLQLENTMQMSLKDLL
* hit, by the source's call; ? = inconclusive; . = no result given; & = joins results of further samples; [ ] = dose if it differs, or a comment. Not all compounds are listed, so the mix of outcomes need not match the whole.

Fields: Rango-impB inh	Rango dissoc inh	miR-21 reporter	GLA inh pH 4.5
CN(C)C(=O)N1CCC(C(=O)NCc2ccccc2Cl)CC1
  3.9%	3.8%	-0.3%	-3.6
O=C(COC(=O)C1CC(=O)N(Cc2ccccc2)C1)c1ccc(Br)cc1 (centres undefined)
  2.6%	11.4%	0.1%	-5.4
CN(C)c1ccc(C(=O)C(=O)c2ccccc2)cc1
  -1.4%	4.8%	-38.3%	.
O=C1c2ccccc2C(=O)N1CCC1=CCCCC1
  0.0%	0.0%	-32.1%	2.6
CC1CC(C)CN(C(=O)CSCC(=O)Nc2nc(-c3cccs3)cs2)C1 (centres undefined)
  2.0%	-6.8%	-28.5%	3.9
CC(=O)c1ccc(OC(C)C)c(CC(C(N)=O)C(N)=O)c1
  0.5%	15.4%	-0.4%	-0.5
O=C(O)c1ccccc1C(=O)c1ccc2c(c1)N(Cc1ccc(Cl)c(Cl)c1)C(=O)CO2
  2.1%	-5.6%	1.3%	-10.0
CCN1CCN(CC(=O)Nc2ccc(C(C)=O)cc2)CC1
  -0.2%	-1.7%	2.5%	.
O=[N+]([O-])c1ccc(Sc2n[nH]c(-c3ccc(Cl)cc3Cl)n2)nc1
  9.1%	23.4%	-15.1%	3.2
Cc1csc(SCC(=O)NC(=O)NCc2ccccc2)n1
  -1.9%	-0.2%	-6.2%	6.8

Limited to miR-21 reporter, Rango dissoc inh and Rango-impB inh, for some of the entries so far:
Compound	miR-21 reporter	Rango dissoc inh	Rango-impB inh
CC(=O)c1ccc(OC(C)C)c(CC(C(N)=O)C(N)=O)c1	-0.4%	15.4%	0.5%
O=C(O)c1ccccc1C(=O)c1ccc2c(c1)N(Cc1ccc(Cl)c(Cl)c1)C(=O)CO2	1.3%	-5.6%	2.1%
CCN1CCN(CC(=O)Nc2ccc(C(C)=O)cc2)CC1	2.5%	-1.7%	-0.2%
O=[N+]([O-])c1ccc(Sc2n[nH]c(-c3ccc(Cl)cc3Cl)n2)nc1	-15.1%	23.4%	9.1%
Cc1csc(SCC(=O)NC(=O)NCc2ccccc2)n1	-6.2%	-0.2%	-1.9%

Next records follow:
Fields: Rango-impB inh	Rango dissoc inh	miR-21 reporter	GLA inh pH 4.5
NC(=S)N/N=C/c1ccc(Br)o1
  9.8%	3.7%	-0.1%	-3.9
CN(C)S(=O)(=O)NCc1ccc2c(c1)OCO2
  0.6%	-8.6%	-6.6%	4.7
O=C(COC(=O)c1cc(S(=O)(=O)N2CCOCC2)ccc1F)Nc1ccc(Cl)cn1
  ?	-6.5%	.	.
O=C(CSc1nnc(CNc2ccc(F)cc2)o1)N1CCCc2ccccc21
  -0.4%	-20.0%	0.3%	-1.9
Cc1ccc(CNc2nc(N)c([N+](=O)[O-])c(Nc3cccc(F)c3)n2)cc1
  -0.3%	2.5%	-0.2%	-1.0
Cc1ccccc1NC(=O)c1cc(-c2ccco2)nc2ccccc12
  -4.3%	0.1%	.	.
COc1cc(NC(=O)COc2cc(C)cc3oc(=O)c(C)c(C)c23)cc(OC)c1OC
  -0.9%	4.7%	4.6%	.
Cc1ccc(NC(=O)c2ccc(NCCCN3CCC(C)CC3)c([N+](=O)[O-])c2)c(C)c1
  1.2%	11.3%	-6.6%	.
CCOC(=O)c1c(-c2ccccc2)oc2ccc(O)c(CN3CCOCC3)c12
  -3.3%	-9.4%	20.8%	-8.5
N#C/C(=N\Nc1c(Cl)cccc1Cl)C(=O)NN
  -0.2%	15.3%	-46.9%	-0.1

2 entries from above, with tabs.
Structure	Rango-impB inh	Rango dissoc inh	miR-21 reporter	GLA inh pH 4.5
CN(C)S(=O)(=O)NCc1ccc2c(c1)OCO2	0.6%	-8.6%	-6.6%	4.7
Cc1ccccc1NC(=O)c1cc(-c2ccco2)nc2ccccc12	-4.3%	0.1%	.	.

Remaining list, next part:
Fields: Rango-impB inh	Rango dissoc inh	miR-21 reporter	GLA inh pH 4.5
Nc1nc(SCc2nc3scc(-c4ccccc4)c3c(=O)[nH]2)n[nH]1
  -4.6%	-10.5%	-6.3%	-6.2
O=C(/C=C/c1ccco1)N(Cc1ccccc1)C1CCS(=O)(=O)C1 (centres undefined)
  0.1%	-10.8%	-0.2%	0.0
CCCc1c(C)nc2ccccc2c1SCCC#N
  -1.9%	-20.2%	5.6%	12.0
COc1ccc(C2CC(c3cccc(F)c3)=NN2c2ccc(S(N)(=O)=O)cc2)cc1 (centres undefined)
  ?	?	.	.
O=[n+]1c2c(n([O-])c3c1CCC3)CCCC2
  ?	16.2%	-1.7%	4.5
S=C1NC(c2cccs2)=CC(c2ccc(Br)cc2)N1 (centres undefined)
  ?	-8.3%	-0.1%	-5.1
CC(=O)c1c[nH]c(C(=O)NC2CCCCCC2)c1
  1.8%	10.8%	-11.1%	.
CSCCC(NC(=O)c1ccccc1)C(=O)OCC(=O)N(C)CCC#N (centres undefined)
  3.8%	-2.9%	2.1%	5.7
Cc1ccc(CC(NC(=O)C2CCCCC2)C(=O)O)cc1 (centres undefined)
  -0.3%	4.4%	.	.
C=C(C)c1cccc(C(C)(C)NC(=O)N2CCC(C(N)=O)CC2)c1
  -5.3%	8.8%	1.8%	5.5
CN(Cc1nccn1C)C(=O)c1cc(COc2cccc(C(F)(F)F)c2)on1
  -0.4%	8.4%	-17.5%	.
Cc1nonc1OCCCNc1ccc([N+](=O)[O-])cc1Cl
  -0.7%	-12.0%	-4.2%	-9.5
Cc1cc(C(=O)NC(C)c2ccncc2)cs1 (centres undefined)
  2.3%	-7.9%	-3.6%	7.9
O=C(NCCC1CCCCN1S(=O)(=O)c1ccc(F)cc1)C(=O)NCc1ccccn1 (centres undefined)
  -0.2%	-0.9%	.	.
CCc1nnc(NC(=O)CC(=O)Nc2ccccc2C(=O)O)s1
  1.3%	1.7%	4.1%	-3.4
O=C(Cc1ccccc1[N+](=O)[O-])NNC(=O)c1ccncc1
  1.6%	33.3%	.	.
CCCC(CCC)C(=O)O
  -1.9%&-0.4%	19.3%&-17.3%	.	-1.0&-2.3
O=C(COC(=O)CCC1CCCC1)Nc1ccc(F)cc1
  5.6%	-3.6%	.	.
CN(C)c1cccc2c(/C=N/O)ccc(N(C)C)c12
  -2.9%	-8.8%	1.4%	2.0
CC(CCc1ccccc1)NC(=O)COC(=O)c1cccnc1Cl (centres undefined)
  -1.9%	?	.	.

Pulled by compound from above (5):
Fields: Rango-impB inh	Rango dissoc inh	miR-21 reporter	GLA inh pH 4.5
CC(CCc1ccccc1)NC(=O)COC(=O)c1cccnc1Cl (centres undefined)
  -1.9%	?	.	.
COc1cc(NC(=O)COc2cc(C)cc3oc(=O)c(C)c(C)c23)cc(OC)c1OC
  -0.9%	4.7%	4.6%	.
CCN1CCN(CC(=O)Nc2ccc(C(C)=O)cc2)CC1
  -0.2%	-1.7%	2.5%	.
O=C(COC(=O)C1CC(=O)N(Cc2ccccc2)C1)c1ccc(Br)cc1 (centres undefined)
  2.6%	11.4%	0.1%	-5.4
O=C(COC(=O)c1cc(S(=O)(=O)N2CCOCC2)ccc1F)Nc1ccc(Cl)cn1
  ?	-6.5%	.	.

Later entries:
Fields: Rango-impB inh	Rango dissoc inh	miR-21 reporter	GLA inh pH 4.5
CCCN(CC(=O)Nc1ccccc1C)C(=O)COc1c(Cl)cccc1Cl
  -0.1%	20.4%	.	.
Cc1cc(C(=O)NNC(=S)NCc2ccco2)nn1C
  -4.6%	-0.3%	-8.4%	0.8
Cc1cc(C)c(S(=O)(=O)Nc2ccnc(-c3cccnc3)n2)c(C)c1
  -1.4%	1.3%	7.3%	7.8
COC(=O)CCCC(=O)N1CCC(n2nccc2NC(=O)CCOc2ccccc2)CC1
  0.0%	-8.8%	-18.5%	.
O=C(COC(=O)c1cc[n+]([O-])cc1)Nc1ccc(SC(F)F)cc1
  -1.4%	9.6%	-23.6%	1.1
O=C(Nc1ccccc1)c1cc([N+](=O)[O-])ccc1NCc1cccnc1
  ?	-11.5%	-1.1%	-11.0
COc1cc(NC(=O)c2ccco2)c(OC)cc1NC(=O)CCC(=O)Nc1cccc(C)c1C
  -0.4%	-0.1%	8.7%	-2.5
COc1ccc(N(C)S(=O)(=O)c2cccc(C(=O)NC3=NCCS3)c2)cc1
  -3.0%	4.8%	1.6%	-4.0
CCCCN(CC)CCCNC(=O)c1cn(-c2ccc(OC)cc2)c(=O)c2ccccc12
  -0.4%	-1.6%	-1.8%	.
CC(=C/C(=O)O)/C=C/c1ccc(Cl)o1
  0.1%	-6.5%	-0.7%	0.5
Cc1cc(C(=O)Nc2nnc(C(F)(F)F)s2)no1
  -5.6%	-8.8%	-17.7%	-6.4
C=CCN1CCN(c2ccncc2S(=O)(=O)N2CCOCC2)CC1
  -0.7%	10.5%	4.1%	4.5
Cc1nn(-c2ccc(F)cc2)c2nc(N)c(C#N)c(-c3ccc(O)c(O)c3)c12
  -9.1%	-4.2%	0.0%	.
CC(=O)Nc1sc(N/N=C\c2ccccc2Cl)nc1-c1cccs1
  ?	-15.0%	-20.5%	-7.0
Cc1ccc(NC(=O)c2cc(-c3ccc(C)o3)nc3ccccc23)cc1
  -0.7%	-3.8%	-12.7%	1.4
COc1ccccc1NC(=O)c1cc(S(=O)(=O)NCc2ccccc2)ccc1F
  -1.1%	-11.3%	19.6%	-18.9[21.1 µM]
Cc1c(C(=O)Nc2ccc(N3CCOCC3)cc2)oc2ccccc12
  6.8%	2.8%	-12.9%	1.8
CCOC(=O)c1oc2cc(O)cc(O)c2c(=O)c1OCc1ccccc1
  0.0%	0.1%	.	.
CCNC(=S)N/N=C1\C(=O)c2cccc3cccc1c23
  0.5%	1.3%	-1.4%	3.3
COc1ccc(NC(=O)/C(C#N)=C\c2ccc(N3CCOCC3)o2)cc1
  ?	?	-16.7%	-11.3
CC(C)C[C@H]1CNC(=S)N1CC1CCN(CCCCc2ccccc2)CC1
  0.1%	-8.5%	.	.
COc1ccc(/C=C/C(=O)OCc2nc3ccccc3c(=O)[nH]2)c(OC)c1
  2.7%	5.1%	-0.2%	-6.9
CCN(CC)C(=O)CN1CCN(c2ncccn2)CC1
  -1.7%	1.3%	-3.0%	-9.7
O=c1cc(-c2ccccc2)oc2ccc(Br)cc12
  6.2%	4.5%	.	.
CCOC(=O)C1=NN(C(=O)c2ccco2)C2(CC2)C1
  0.5%	-5.5%	-3.1%	-4.8
O=C(OC1Cn2c(=O)ccc(=O)n2C1)c1ccccc1
  1.9%	-5.1%	-3.3%	0.9
O=C(N/N=C/c1ccoc1)c1ccc([N+](=O)[O-])cc1
  1.9%	-2.9%	-2.2%	.
O=C(c1cc2ncc(Br)cn2n1)N1CCCCC1
  -3.1%	1.2%	-14.3%	1.8
Nc1ccc2cc3ccccc3cc2c1
  ?	?	.	.
COc1ccc(C(=O)C(C)OC(=O)CN2C(=O)c3ccccc3C2=O)cc1 (centres undefined)
  -1.3%	1.0%	.	.

Next part (2 carried over from the part before).
Fields: Rango-impB inh	Rango dissoc inh	miR-21 reporter	GLA inh pH 4.5
Nc1ccc2cc3ccccc3cc2c1
  ?	?	.	.
COc1ccc(C(=O)C(C)OC(=O)CN2C(=O)c3ccccc3C2=O)cc1 (centres undefined)
  -1.3%	1.0%	.	.
O=C(/C=C/c1ccccc1Cl)OCC(=O)c1ccc[nH]1
  1.1%	-9.9%	.	.
CC(=O)c1ccc(NC(=O)C(C)Sc2ccccn2)cc1 (centres undefined)
  -0.9%	-20.4%	-55.3%	6.5
O=C(Nc1ccc(Cl)cc1)C1CCN(C(=O)c2cccs2)CC1
  4.1%	17.0%	3.7%	.
COc1ccc(CCC(=O)Nc2ncc(C)s2)cc1OC
  -2.4%	-7.7%	-0.6%	.
O=C(COC(=O)c1ccccn1)NCc1ccc(Cl)cc1Cl
  3.0%	-2.8%	.	.

Compound activity from PubChem BioAssay.
